Assay outcomes from PubChem.
KCNQ2 block: KCNQ2 potassium channel inhibitors, primary screen, cell-based, CHO-K1, FluxOR thallium flux, B-score (AID 2156) | Potassium voltage-gated channel subfamily KQT member 2 (Rattus norvegicus), O88943 | 20 min; hits give low values; only compounds with negative scores are shown here; some inactives read as strong as hits | B-score at 10 µM | hit rate 1.1% among 310,000;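 active means fluorescence ratio B-score at most minus 3 library SDs, with starting brightness B-score within 2 library SDs, cut at about -5.5 in these data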
Target sequence (O88943 whole entry, looked up): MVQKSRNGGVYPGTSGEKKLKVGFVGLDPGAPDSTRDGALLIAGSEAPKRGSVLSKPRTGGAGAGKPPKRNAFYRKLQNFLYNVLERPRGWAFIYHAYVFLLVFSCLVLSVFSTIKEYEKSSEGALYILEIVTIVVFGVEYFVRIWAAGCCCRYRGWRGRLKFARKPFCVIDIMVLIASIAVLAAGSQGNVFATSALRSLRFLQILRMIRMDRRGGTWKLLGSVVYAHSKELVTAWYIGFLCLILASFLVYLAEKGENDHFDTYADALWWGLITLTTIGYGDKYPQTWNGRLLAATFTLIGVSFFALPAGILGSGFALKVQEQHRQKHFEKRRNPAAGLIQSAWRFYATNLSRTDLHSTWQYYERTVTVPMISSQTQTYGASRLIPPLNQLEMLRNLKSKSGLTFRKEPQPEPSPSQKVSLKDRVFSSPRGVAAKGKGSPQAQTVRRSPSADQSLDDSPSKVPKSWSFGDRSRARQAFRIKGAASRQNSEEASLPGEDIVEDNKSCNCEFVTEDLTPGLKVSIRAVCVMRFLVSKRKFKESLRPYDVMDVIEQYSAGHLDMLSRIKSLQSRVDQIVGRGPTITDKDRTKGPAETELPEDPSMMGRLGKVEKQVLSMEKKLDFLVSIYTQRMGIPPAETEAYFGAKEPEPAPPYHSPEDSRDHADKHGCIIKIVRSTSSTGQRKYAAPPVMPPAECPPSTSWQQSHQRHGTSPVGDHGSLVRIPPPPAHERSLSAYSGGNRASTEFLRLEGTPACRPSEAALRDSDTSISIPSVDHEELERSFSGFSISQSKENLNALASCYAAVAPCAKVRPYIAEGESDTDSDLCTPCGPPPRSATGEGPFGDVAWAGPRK
KCNQ2 block baseline: recorded beside KCNQ2 block, whose call it bears; B-score; measured here: initial fluorescence intensity artifact check;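 brightness before thallium and not channel activity; 0 = typical well and far values either way flag optical interference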
* hit, by the source's call; i = inactive.

The line under a structure holds: KCNQ2 block | KCNQ2 block baseline
CCOC(=O)c1c(CSc2nc(C)cc(C)c2C#N)n(C)c2cc(Br)c(OC(C)=O)cc12
→ i | 0.24
CN(C)S(=O)(=O)c1ccc(NC(=O)c2ccc([N+](=O)[O-])cc2)cc1
→ i | -3.1
Fc1ccc(C2CC(c3ccccc3)Nc3ncnn32)cc1 (stereo unspecified)
→ i | 0.78
O=C(NNC(=O)C12CC3CC(CC(C3)C1)C2)[C@@H]1C[C@H]1c1ccccc1
→ i | 0.45
O=C(NCCc1ccc(O)c(O)c1)C1COc2ccccc2O1 (stereo unspecified)
→ i | -0.18
COC(=O)[C@H](Cc1ccccc1)NC(=O)[C@@]1(C)C[C@@H]1[C@@H](NC(=O)OCc1ccccc1)c1ccccc1
→ i | 0.01
COc1cc(OC)c(OC)cc1CNCCSc1nnnn1C
→ i | 0.85
COC(=O)C1=[N+]([O-])OC(C(=O)OC)C1c1c[nH]c2ccccc12 (stereo unspecified)
→ i | -0.01
Cc1cccc(CCN2CCC(C(=O)c3ccc(NS(C)(=O)=O)cc3)CC2)n1
→ i | 0.67
Cc1c(Cl)cccc1N(CC(=O)NC1CCCCC1)S(C)(=O)=O
→ i | 1.7
O=C(O/N=C1/CCSc2ccccc21)c1ccccc1
→ i | 0.13
O=C(c1ccccc1)N1CCN(c2ccc(Cl)cc2)CC1
→ i | 0.03
CC(=O)N(C)c1ccc(NC(=O)Nc2ccc(Cl)cc2)cc1
→ i | -3.2
Cn1nnnc1SC(C(=O)Nc1ccc(F)cc1)c1ccccc1 (stereo unspecified)
→ i | 1.1
Cc1ccc(NC(=O)N2CCCc3ccccc32)cc1C
→ i | 0.05

New compounds follow
The line under a structure holds: KCNQ2 block | KCNQ2 block baseline
COc1ccccc1N(CC1CO1)S(=O)(=O)c1ccc(C)cc1 (stereo unspecified)
→ i | 2.2
COc1ccc(CNC(=O)CCNS(=O)(=O)c2cc(Br)cnc2N)cc1
→ i | 1.7
CC(=O)c1c(C)[nH]c(C(=O)OCC(=O)Nc2cc(C)on2)c1C
→ i | -0.19
CN(CCCNC(=O)Cn1c(=O)c2cccn2c2ccccc21)Cc1ccccc1
→ i | -0.22
CSc1sc(C(=O)N2CCCCC2)c(-c2cccs2)c1C#N
→ i | 0.3
COCCNC(=O)NC(=O)COC(=O)c1cccn1C
→ i | 0.01
CCC1(c2ccccc2)NC(=O)N(CC(=O)Nc2cc(S(=O)(=O)N3CCOCC3)ccc2OC(C)C)C1=O (stereo unspecified)
→ i | 1.1
COc1cc(NC(=O)Cc2ccc(OC)c(S(=O)(=O)N3CCOCC3)c2)c(OC)cc1Cl
→ i | -3
COc1ccc(NC(=O)c2ccc(OCc3c(C)noc3C)c(OC)c2)cn1
→ i | 1.2
O=C1C2C3C=CC(C4CC34)C2C(=O)N1/N=C/c1cccs1 (stereo unspecified)
→ i | -1.4
CCC(C)C(NC(=O)OC(C)(C)C)C(=O)NC(C)C(N)=O (stereo unspecified)
→ i | 0.51
O=C(c1cc(S(=O)(=O)N2CCCC2)c(Cl)cc1Cl)N1CCCC1
→ i | -0.47
O=C(N/N=C/c1ccc(OC(=O)c2ccco2)cc1)c1ccncc1
→ i | 1.8
COc1ccc(NC(=O)c2cccc([N+](=O)[O-])c2)cc1
→ i | 0.6
NC(=O)NC(=O)CSc1nc2cc([N+](=O)[O-])ccc2n1-c1cccc(C(F)(F)F)c1
→ i | -1.5

(further entries)
The line under a structure holds: KCNQ2 block | KCNQ2 block baseline
COc1ccc(C(=O)N/C(=C/c2cccs2)C(=O)NCCCn2ccnc2)cc1OC
→ i | 0.91
Cc1ccc(OCCC(=O)OCC(=O)NC(=O)NC2CCCCC2)cc1
→ i | 2.6
CC(=O)n1cc([C@H]2C=C(C(N)=O)O[C@@H](OCc3ccc(CO)cc3)C2)c2ccccc21
→ i | 0.05
Cc1ccc(S(=O)(=O)NC(=O)c2cccc(C)c2)cc1
→ i | -0.28
COc1ccc(Oc2nc3c(c(=O)n(C)c(=O)n3C)n2Cc2cccc(OC)c2)cc1
→ i | -0.07
CC(=O)c1c(C)[nH]c(C(=O)CSc2nnc(-c3ccco3)o2)c1C
→ i | -1.2
Cc1ccc(NC(=O)CSc2nnc(-c3cccnc3)s2)cc1
→ i | -0.52
O=C(NCCNC(=O)c1cc(F)cc(F)c1)c1cc(F)cc(F)c1
→ i | -1.9
CC1(C)CNc2cc([N+](=O)[O-])ccc2S1
→ i | 0.06
CC(=O)N(CCC(c1ccco1)C(C)C)Cc1ccc(OC(C)C)cc1 (stereo unspecified)
→ i | -1
CSc1nc(-c2ccccc2)nc(N)c1C(C)=O
→ i | 1.6
C=CCNC(=O)c1ccccc1NC(=O)c1ccccc1N(C)S(C)(=O)=O
→ i | 0.04
Cc1cccc(N(Cc2ccccc2)C(=O)c2ccccc2F)c1
→ i | -0.89
O=C(Nc1cccc(Cl)c1)OCCN1CCN(Cc2ccccc2)CCC1=O
→ i | 9.9
CC(Oc1ccccc1Cl)C(=O)N(Cc1ccco1)C1CCS(=O)(=O)C1 (stereo unspecified)
→ i | 0.51

Other results
The line under a structure holds: KCNQ2 block | KCNQ2 block baseline
CCCc1ccc2oc(C(=O)N(C)Cc3cnccn3)c(C)c2c1
→ i | 0.48
CSc1cccc(NC(=O)CN(c2cc(C)ccc2C)S(C)(=O)=O)c1
→ i | -2.8
CSc1ccc(CN2CCCC(CNC(=O)c3ccc(F)cc3)C2)cc1 (stereo unspecified)
→ i | -0.91
CC(=O)c1cccc(NC(=O)Nc2nc(C)cc(C)n2)c1
→ i | -2.6
COc1ccc(NC(=O)c2cccc(S(=O)(=O)NCc3ccco3)c2)c(OC)c1
→ i | -0.44
NC(=O)COc1ccc(/C=N\NC(=O)c2ccc(-c3ccccc3)cc2)cc1
→ i | -0.05
COc1ccc2nc3c(cc2c1)c(NC(=O)c1cccs1)nn3CC(C)C
→ i | 0.01
COc1cc(C)ccc1OCCCCOc1ccccc1C(C)=O
→ i | -0.31
COc1ccc(/C=C2\CCc3ccccc3C2=O)cc1OC
→ i | -0.67
CCN(CCNC(=O)CCCn1nc(C)n2c(cc3sccc32)c1=O)c1ccccc1
→ i | -0.82
COc1cc(NC(=O)COC(=O)CNC(=O)c2ccc(Cl)cc2)c(C)cc1[N+](=O)[O-]
→ i | -1.9
O=C(NCCCN1CCC(Cc2ccccc2)CC1)C1CC(=O)N(C2CCCCCC2)C1 (stereo unspecified)
→ i | 0.75
CCNc1nc(NCC)n2c(SCC(=O)Nc3ccccc3Cl)nnc2n1
→ i | 0.16
CCOC(=O)C1(Cc2cccc(Cl)c2)CCCN(C(=O)CCN2CCCC2=O)C1 (stereo unspecified)
→ i | 1.2
COc1cc(NC(=O)COc2ccc(Cl)cc2)ccc1-c1cc2ccccc2oc1=O
→ i | -1.5

The listing continues.
The line under a structure holds: KCNQ2 block | KCNQ2 block baseline
O=C(COc1ccc(S(=O)(=O)Nc2ccccc2)cc1)NCc1ccccn1
→ i | 1
Cn1c(=O)[nH]c(=O)c2c1nc1n2CCCN1Cc1ccccc1
→ i | 0.47
COc1ccc(C)cc1NC(=O)CCNS(=O)(=O)c1cccc(C(F)(F)F)c1
→ i | -1.1
Cc1cc(OC(F)F)ccc1NC(=O)Nc1ccc([N+](=O)[O-])cc1
→ i | -0.82
CC(C)c1ccc(NC(=S)NN2C(C)CCCC2C)cc1 (stereo unspecified)
→ i | 0.14
CCn1c(SCC(=O)NC2CC2)nnc1-c1ccc(OC)cc1
→ i | -0.45
CC1CCCCN1C(=O)CN(C)S(=O)(=O)c1cccc2nsnc12 (stereo unspecified)
→ i | -0.28
CCCCC(=O)N1C/C=C\C(c2ccc(OC)cc2)N(Cc2ccc(F)cc2)C(=O)[C@H]1Cc1ccccc1 (stereo partly specified)
→ i | 0.06
Cc1ccc(C(C(=O)NC2CCCCC2)N2CCCC2)cc1 (stereo unspecified)
→ i | -1.9
CCN(CC)S(=O)(=O)c1cc(C(=O)OCC(=O)Nc2ccc(-c3nc4ccc(C)cc4s3)cc2)ccc1F
→ i | 1.5
c1ccc(-n2ncc3c2ncn2nc(-c4ccco4)nc32)cc1
→ i | -0.76
O=C(Nc1ccncc1)c1cc(F)cc(F)c1
→ i | 0.06
Cc1cccc(N2CCN(S(=O)(=O)c3c(C)nc4scc(C)n4c3=O)CC2C)c1 (stereo unspecified)
→ i | -0.8
Fc1ccc(C(CNC(=S)NC2CCCCC2)N2CCOCC2)cc1 (stereo unspecified)
→ i | -0.75
COc1nc(-c2ccccc2)cc(-c2ccc(OC)c(OC)c2)n1
→ i | -1.5

Next section.
The line under a structure holds: KCNQ2 block | KCNQ2 block baseline
Brc1ccc(-c2noc(COc3ccc4ccccc4c3)n2)o1
→ i | -0.61
CCCCn1c(SCC(=O)c2ccccc2)nc2ccsc2c1=O
→ i | 1.9
CCN(CC(=O)Nc1ccc(NC(C)=O)cc1)C(=O)C1CC(=O)N(Cc2ccc(C)cc2)C1 (stereo unspecified)
→ i | 1.3
COc1cc(C(=O)O)ccc1OC(C)=O
→ i | -0.04
Cc1ccc(NC(=O)CCCCCC2NC(=O)NC2C)cc1 (stereo unspecified)
→ i | -0.22
Cc1ccc(CSc2nnc(-c3ccc4c(c3)OCO4)o2)cc1
→ i | -0.25
CC1(C)C(c2ccc(Cl)cc2)=[N+]([O-])C2(CCCC/C2=N\O)N1O (stereo unspecified)
→ i | -0.14
CC(=O)Cn1c(CN2CC(C)CC(C)C2)nc2c1c(=O)n(C)c(=O)n2C (stereo unspecified)
→ i | 0.86
CC(C)(C)NC(=O)NC(=O)CN1CCN(c2ccccc2)CC1
→ i | 0.42
COC(=O)C1C(=O)C2=C(CC1C)NC(C)=C(C(=O)OC1CCCC1)C2c1ccc(N(C)C)cc1 (stereo unspecified)
→ i | -1.2
COc1ccccc1-c1cnn2c(NC3CCCC3)cc(C)nc12
→ i | 0.94
Cc1cccc(OCC(=O)N2CCN(C(=O)CCC3CCCC3)CC2)c1
→ i | 0.92
COC(=O)Cn1ncc2c3ccccc3n(Cc3ccccc3)c2c1=O
→ i | 0.8
N#Cc1ccc(C(=O)Nc2nc(SCc3ccc(Cl)cc3)n[nH]2)cc1
→ i | -1.4
Cc1ccc(-c2nn(C)c(=O)c3ccccc23)cc1S(=O)(=O)NCCO
→ i | -0.77

(further entries)
The line under a structure holds: KCNQ2 block | KCNQ2 block baseline
CCc1ccc2nc(N3C(=O)c4oc5ccccc5c(=O)c4C3c3ccc(OC)c(OC)c3)sc2c1 (stereo unspecified)
→ i | -1.9
Oc1ccc(C[C@H]2CNCCN2CCCCC2CCCCC2)cc1
→ i | 2.1
COc1ccc(CNC(=O)CN(C(=O)CCC(=O)Nc2nccs2)c2ccc3c(c2)OCO3)cc1
→ i | -0.56
COc1ccc(C(=O)NCc2ccc3c(c2)OCO3)cc1S(=O)(=O)N(C)Cc1ccccc1
→ i | -1.2
Cc1cc(/C=C2\SC(=O)N(C)C2=O)c(C)n1-c1cccc(C(=O)O)c1
→ i | -0.24
Cc1cccc(Nc2c3c(nc4ncnn24)CCC3)c1
→ i | -0.13
N/C(=N\OC(=O)CC1CCCCC1)c1ccncc1
→ i | 0.39
COc1ccc(S(=O)(=O)n2ccc(-c3cnc(-c4ccccc4)s3)n2)cc1
→ i | -1.3
CCOC(=O)N1CCN(C(=O)c2cc(COc3ccc(F)cc3F)on2)CC1
→ i | 2.1
COC(=O)N1CCN(c2ccc(OC)cc2)CC1
→ i | -0.79
CN(C)c1cc(N/N=C/c2ccc(Cl)cc2)nc(N(C)C)n1
→ -8.6* | -0.75*
CCCCNc1nc(-c2ccccc2)c(C(=O)OCC)cc1C#N
→ i | -0.26
O=C(Nc1ccc(Cl)c(Cl)c1)Nc1ccc(Br)cc1F
→ i | -1.3
NC(=O)COC(=O)c1cc(S(=O)(=O)N2CCOCC2)ccc1N1CCCCC1
→ i | 0.36
C/C=C/c1ccc(OCC(=O)NCc2ccccc2OC)c(OC)c1
→ -6.7* | -1.6*

Part of the list above in order of length of the SMILES, falling:
The line under a structure holds: KCNQ2 block | KCNQ2 block baseline
COc1ccc(S(=O)(=O)n2ccc(-c3cnc(-c4ccccc4)s3)n2)cc1
→ i | -1.3
NC(=O)COC(=O)c1cc(S(=O)(=O)N2CCOCC2)ccc1N1CCCCC1
→ i | 0.36
CN(C)c1cc(N/N=C/c2ccc(Cl)cc2)nc(N(C)C)n1
→ -8.6* | -0.75*
CCCCNc1nc(-c2ccccc2)c(C(=O)OCC)cc1C#N
→ i | -0.26
O=C(Nc1ccc(Cl)c(Cl)c1)Nc1ccc(Br)cc1F
→ i | -1.3
Cc1cccc(Nc2c3c(nc4ncnn24)CCC3)c1
→ i | -0.13
COC(=O)N1CCN(c2ccc(OC)cc2)CC1
→ i | -0.79

Additional entries:
The line under a structure holds: KCNQ2 block | KCNQ2 block baseline
Cc1ccc(-c2noc(CSc3nnc(Cc4ccccc4)n3-c3cccc(C)c3)n2)cc1
→ i | -0.96
CCOC(=O)/C(C(N)=NCc1ccco1)=C(/O)c1ccccc1
→ i | -2.1
O=C(O)c1ccc2ncc(NC(=O)c3ccc(F)cc3)c(=O)n2c1
→ i | 0.54
Cc1cc(C(=O)NC2CCCN(Cc3ccc(Cl)cc3)C2)c(C)o1 (stereo unspecified)
→ i | -1.3
COc1ccc(CC(=O)Nc2ccccc2N2CCCCC2)cc1OC
→ i | -0.57
COc1ccc(S(=O)(=O)NC2CCCC2)cc1Br
→ i | 0.62
O=C(CN(Cc1ccco1)C(=O)CNS(=O)(=O)c1ccc(F)cc1)NCc1ccco1
→ i | 0.21
CCN(c1ccccc1)S(=O)(=O)c1cccc(C(=O)O)c1
→ i | 0.32
CCOC(=O)N1CCC(N2CCN(S(=O)(=O)c3ccc4ccccc4c3)CC2)CC1
→ i | 1.6
COc1ccc(C(=O)O)cc1N1C(=O)Nc2ccccc2N1O
→ i | 0.41
Cc1cccc(CN2CCC(Oc3ccc(C(=O)N4CCCC4)cc3)CC2)n1
→ i | -0.86
Cc1ccc(C(=O)O)cc1NC(=O)c1ccc2c(c1)C(=O)N(c1ccc([N+](=O)[O-])cc1)C2=O
→ i | 0.88
O=C(CN1C2=NCCCN2c2ccccc21)c1ccc(Cl)cc1Cl
→ i | 1.1

Only part of the results is shown; the hit share may differ from the screen's.
